Ab BasE inh = BasE siderophore enzyme inhibitors, primary screen, biochemical, Acinetobacter baumannii ATCC 17978, fluorescence polarization | 84,000 compounds, 0.1% hits | AID 485350, 2010 | purified BasE, fluorescence polarization binding displacement | inhibition, % (concentration not given with the values);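 active = both replicates above 25% with normal brightness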;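 note: 0% = negative plate control signal and 100% = positive plate control signal; stock transfer was 100 nL into about 30 µL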
KSHV LANA nucl = inhibitors of KSHV LANA-nucleosome binding, primary screen, biochemical, fluorescence polarization, FITC-LANA1-23, chicken nucleosomes. FITC-LANA1-23 / chicken nucleosome fluorescence polarization; hits give low values. z-score (concentration not given with the values). 51,000 compounds, 0.3% hits. AID 720717, 2013;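 active = both repeat wells score below -2 in polarization z-score versus plate sample wells, excluding overly bright wells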;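 note: 100 nL library stock added to about 30 µL; numbers are from one replicate; some results filed as inactive read as strong as hits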
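System – purified chicken nucleosomes with FITC-labelled LANA N-terminal peptide (1-23) · Amount – 240 nM purified chicken nucleosomes (480 nM peptide binding sites), final · Also added – 50 nM FITC-LANA1-23 probe · Medium – TEN-BT buffer, pH 7.5 · Incubation – compound with peptide–nucleosome mix 10–45 min at room temperature · Detection – fluorescence polarization, ex 480 nm, em 535 nm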
Active calls of the source: *; x = no result given; & = joins results of further samples.

Results follow in this order: KSHV LANA nucl | Ab BasE inh
CCc1ccc(NC(=O)N2CCCC(CN3CCc4ccccc4C3)C2)cc1 (stereo not given)
    -0.4 | -2.3
CC(C)COC(=O)c1nnsc1NC(=O)Nc1ccccc1
    -0.89 | 0.8
CC(C)N(Cc1ccccc1)S(=O)(=O)c1ccc2c(c1)OCCO2
    x | 1.3
CC(C(=O)O)c1ccc(CC2CCCC2=O)cc1 (stereo not given)
    -0.16 | x
COc1ccc(-n2cc(C(=O)NCCCN3CCCCC3)c3ccccc3c2=O)cc1
    -0.67 | 0.4
O=C(/C=N/O)Nc1cc(C(F)(F)F)cc(C(F)(F)F)c1
    x | 0.0
COc1ccc(S(=O)(=O)N2CC=C(c3c(C)n(CC(=O)N4CCCC4)c4ccccc34)CC2)cc1OC
    -0.082 | -3.3
N#CC(CC(=O)N1CCCCCC1)C(=O)Nc1ccc(Cl)cc1 (stereo not given)
    x | 1.5
CN1CCN(c2ccc(NC(=O)Cc3ccccc3)cc2)CC1
    -0.61 | 1.0
CCN(CC)CCNS(=O)(=O)c1c(C)c(C)c(C)c(C)c1C
    -0.23 | x

(listing goes on)
Results follow in this order: KSHV LANA nucl | Ab BasE inh
CC(=NCCc1ccc(Cl)cc1)c1ccccc1O
    x | -6.2
O=C(Nc1ccccc1F)NC1CCCc2ccccc21 (stereo not given)
    x | -0.9
CC1CCCCN1S(=O)(=O)c1cccc(C(=O)O)c1 (stereo not given)
    0.23 | 0.1
Cc1ccc(Cn2c(=O)oc3ccccc32)cc1
    -0.084 | 2.9
Cc1ccc(-n2c(C)cc(=O)cc2C)c(C)c1
    x | 1.7
CCC(C(=O)O)n1nnc(-c2ccsc2)n1 (stereo not given)
    x | -0.7
CCC(=O)NC(=S)Nc1cccc(Cl)c1N1CCOCC1
    0.2 | -2.2
COc1ccc(NC(=O)CC(c2ccccc2)c2ccco2)cc1 (stereo not given)
    -0.39 | 2.7
CCN(CC)C(=O)CC(c1ccccc1)c1ccco1 (stereo not given)
    0.27 | 1.3
CN(Cc1nc2ccccc2n1CCc1ccccc1)S(=O)(=O)c1ccccc1
    0.19 | 1.5

Remaining list, next part:
Results follow in this order: KSHV LANA nucl | Ab BasE inh
O=C1NNS(=O)(=O)c2ccccc21
    x | 0.1
Cc1nnc(N2CCCC(C(=O)NC3CC3)C2)c2nn(-c3ccccc3)c(C)c12 (stereo not given)
    x | 0.5
CCN(CC)S(=O)(=O)c1ccc(NCCOC)c(C(=O)O)c1
    x | 0.4
Cc1cc(C)c2[nH]c(=O)c(CN(CCN3CCOCC3)C(=S)NCC3CCCO3)cc2c1 (stereo not given)
    0.11 | -3.4
N#CC1(NC(=O)CN2CCN(c3ccccc3Cl)CC2)CCCC1
    x | 1.0
CCc1nc2c3ccccc3ncn2n1
    x | 0.2
Cc1c(C(=O)NN)nc2ccccn12
    x | 2.3
O=C(Cn1c2ccccc2c2cn[nH]c(=O)c21)NCC1CCCO1 (stereo not given)
    -1.6 | 1.9
O=C(Nc1noc2c1COc1ccccc1-2)N1CCC(Cc2ccccc2)CC1
    -1.2 | 1.6
Cc1ccc(-c2noc(CN3CCN(c4ccccc4F)CC3)n2)cc1
    x | -0.3

Following part.
Results follow in this order: KSHV LANA nucl | Ab BasE inh
CC(C)CNS(=O)(=O)c1ccc(NC(=O)c2cccnc2)cc1
    -0.66 | 0.7
COc1ccccc1-n1nnnc1SCc1ccccc1
    -0.21 | -0.1
CCn1c2ccccc2c2cc(N=C=S)ccc21
    x | 0.7
CN1C(=O)C/C(=N\O)N(C)C1=O
    0.23 | -0.4
OC(CNCCNc1ccc(C(F)(F)F)cn1)Cn1ccc2ccccc21 (stereo not given)
    0.87 | -0.9
CCC1(CC)Cc2ccccc2C(=C(C#N)C#N)N1
    0.22 | 0.7
CCn1c(=N)c(S(=O)(=O)c2ccccc2)cc2c(=O)n3ccccc3nc21
    x | 5.5
Cc1ccccc1C(=O)N1CCC(C(=O)N2CCCc3ccccc32)CC1
    x | 2.5
O=C(Nc1nnc(CCN2CCOCC2)s1)c1ccc(Cl)cc1
    0.64 | 0.0
Cc1ccc(-c2nnc(SCc3ccc(C#N)cc3)o2)cc1
    x | 1.3

Following part
Results follow in this order: KSHV LANA nucl | Ab BasE inh
Cc1ccc(NC(=O)CNCc2ccco2)cc1Cl
    0.022 | -5.0
Cc1nc(CSc2nnc3scc(-c4ccccc4)n23)cs1
    x | -1.5
O=C(OCC(=O)N1CCCC1)C1CCN(S(=O)(=O)c2cccs2)CC1
    x | 0.1
COc1ccc(-c2cc(N)n(C)n2)cc1
    0.33 | 2.8
CCCCCCCc1c(O)c2cccc3c2n(c1=O)CCC3
    0.16 | 0.3
CNC(=O)c1c(-c2ccccc2)c2cc(OC)ccc2n1CCN(C)C
    x | -1.4
CNC(=O)c1cc(Cl)ccc1I
    0.2 | 0.7
NNC(=O)c1csc(N2CCOCC2)n1
    x | 3.1
COc1ccccc1NC(=O)C1c2ccccc2Oc2ccccc21
    x | 2.0
COc1cc(C(=O)OCC(=O)N2CCOCC2)ccc1OCC(=O)Nc1ccc(F)cc1
    x | 0.8

Remaining list, next part
Results follow in this order: KSHV LANA nucl | Ab BasE inh
Cc1ccc(S(=O)(=O)N(C)c2c(C)ccc(S(=O)(=O)n3nc(C)cc3C)c2C)cc1
    -0.26 | -4.7
Cc1ccccc1Nc1nn2c(=O)c3ccc(C(=O)N4CCc5ccccc5C4)cc3nc2s1
    -1.7 | 0.2
O=C(O)CCNC(=O)Nc1ccccc1
    x | 2.6
O=C(CSc1nnnn1C1CC1)N(Cc1ccccc1)Cc1ccccc1
    x | 0.8
Cc1ccc2c(c1)c(-c1ccccc1)nc1nnnn12
    0.4 | -0.7
COCCCn1cnnc1SC(C)C(=O)Nc1ccc(S(=O)(=O)N2CCOCC2)cc1 (stereo not given)
    x | 0.7
Cc1cccc(N(C)C(=O)Cc2noc3ccccc23)c1
    2.4 | -3.2
S=c1[nH]nc2n1CCCN2
    1.3 | -3.0
CO/N=C(\C(=O)N[C@@H]1C(=O)N2C(C(=O)O)=C(COC(C)=O)CS[C@H]12)c1csc(N)n1 (stereo in doubt)
    -0.69 | -3.8
CCNC(=O)NC(=O)Cn1cc(C(F)(F)F)ccc1=O
    x | 4.3

(listing goes on)
Results follow in this order: KSHV LANA nucl | Ab BasE inh
CC1CCCCC12NC(=O)N(CCCCN1C(=O)c3ccccc3C1=O)C2=O (stereo not given)
    x | 0.1
O=C(CCc1ccccc1)NN1CCOCC1
    0.42 | -0.2
Cc1nn(C)c(C)c1S(=O)(=O)N(CC(=O)N1CCn2c1nc1ccccc12)c1ccc(C(C)C)cc1
    -0.58 | -1.6
C/C(=C\C(=O)c1ccc(C)cc1)N1CCOCC1
    -0.35 | 2.2
CS(=O)(=O)Nc1ccc([N+](=O)[O-])cc1Oc1ccccc1
    -0.38&0.21&-0.13&0.0075 | 0.1&-0.9&-1.0
CCOC(=O)C1CCN(C(=O)c2ccc3c(c2)S(=O)(=O)c2ccccc2C3=O)CC1
    x | 1.7
O=C(C1COc2cc(S(=O)(=O)Nc3ccccc3)ccc2O1)N1CCCCC1 (stereo not given)
    -0.025 | 1.9
Cc1c(CSc2nnc(C3CC3)n2-c2ccccc2)noc1-c1ccc(F)cc1
    x | -2.3
CS(=O)(=O)c1ncc(Cl)c(C(=O)Nc2cccc(Cl)c2)n1
    1.4 | -5.1
Cc1ccc(N2CC(=O)N(N)CC2=O)cc1
    0.29 | 0.7

Five neighbouring records out of the list so far, quoted:
Results follow in this order: KSHV LANA nucl | Ab BasE inh
CCOC(=O)C1CCN(C(=O)c2ccc3c(c2)S(=O)(=O)c2ccccc2C3=O)CC1
    x | 1.7
O=C(C1COc2cc(S(=O)(=O)Nc3ccccc3)ccc2O1)N1CCCCC1 (stereo not given)
    -0.025 | 1.9
Cc1c(CSc2nnc(C3CC3)n2-c2ccccc2)noc1-c1ccc(F)cc1
    x | -2.3
CS(=O)(=O)c1ncc(Cl)c(C(=O)Nc2cccc(Cl)c2)n1
    1.4 | -5.1
Cc1ccc(N2CC(=O)N(N)CC2=O)cc1
    0.29 | 0.7

The listing continues.
Results follow in this order: KSHV LANA nucl | Ab BasE inh
Cc1[nH]c(=S)sc1CC(=O)N(C)Cc1ccccc1Cl
    x | 0.5
Oc1ccccc1C=Nc1cccc(N=Cc2ccccc2O)c1
    x | -2.0
O=C(CC1S/C(=N\N=C2CCCCC2)NC1=O)Nc1ccc(F)cc1 (stereo not given)
    0.093 | 0.9
CCN1CCN(C(=O)c2ccc(S(=O)(=O)N(CC)CC)cc2)CC1
    -0.63 | 1.8
CCNC(=O)Nc1c(-c2ccccc2)nc2ccccn12
    x | 3.0
c1ccc(CSc2n[nH]c(-c3ccncc3)n2)cc1
    -0.56 | -2.9
Cc1ccnc2c1NC(=O)c1cccnc1N2C1CC1
    0.099 | x
COc1ccc(CCNC(=O)CN(C)c2ccccc2)cc1OC
    x | -0.7
CCOC(=O)c1ccc(Nc2cc(C)nc(-c3ccccc3)n2)cc1
    x | -0.2
Cc1ccc(N2CCNCC2=O)c(C)c1
    0.4 | 2.2

The list goes on.
Results follow in this order: KSHV LANA nucl | Ab BasE inh
O=c1cc(N2CCOCC2)oc2c(-c3ccccc3)cccc12
    0.11 | -2.3
Cc1ccc(C)c(NC(=O)C(C)N2C(=O)C3C4C=CC(C4)C3C2=O)c1 (stereo not given)
    0.035 | -1.1
O=C(Cn1cc(S(=O)(=O)N2CCN(c3ccccc3F)CC2)c2ccccc2c1=O)Nc1ccc(Cl)cn1
    0.49 | 4.4
N#Cc1ccccc1-c1nnn(CC(=O)N/N=C/c2ccc3c(c2)OCO3)n1
    1.9 | 0.4
Cc1cc(C)c(OCC(O)CNC(C)(C)C)c(C)c1 (stereo not given)
    x | -0.3
O=C(C1CCN(S(=O)(=O)/C=C/c2ccccc2)CC1)N1CCN(c2ccccn2)CC1
    x | -2.1
CC1(C)CC(=O)C(C=NCCN2CCN(C(=S)Nc3ccccc3)CC2)=C(O)C1
    -0.056 | 1.0
Cc1cc(C)c(C#N)c(N2CCOCC2)n1
    -0.86 | x
Nc1nc(CN2CCN(c3ccccc3)CC2)nc(Nc2ccccc2)n1
    x | 1.8
CCOC(=O)c1ccc(S(=O)(=O)N2CCC(C(=O)OCC)CC2)cc1
    -1.3 | 1.5

(next part)
Results follow in this order: KSHV LANA nucl | Ab BasE inh
COc1ccccc1NC(=O)Cn1c(C(F)(F)F)nc2ccccc21
    -0.84 | x
CCOC(=O)c1sc(=N)n(CC(=O)c2ccc(F)cc2)c1C
    x | 0.5
CC(C)(C)OC(=O)N1C(C(=O)O)CSC1c1cccc(Br)c1 (stereo not given)
    -0.63 | 1.7
COc1ccc(NC(=O)N(C2CCCCC2)C(C)c2ccco2)c(OC)c1 (stereo not given)
    -0.88 | 1.2
CC[N+]1(C)C2CCC1CC(OC(=O)[C@H]1CCC(C(=O)OC3CC4CCC(C3)[N+]4(C)CC)(c3ccccc3)c3ccccc31)C2 (stereo not given in full)
    -1.1 | -1.1
CC(C)n1c(-c2ccccc2)csc1=Nc1ccccc1
    x | 1.9
CN(CCNC(=O)c1cc(=O)[nH]c2ccc(S(=O)(=O)N3CCCCC3)cc12)Cc1ccccc1
    -0.64 | 2.6
CCN=C(NCC)Nc1ccc(Cl)cc1
    x | -3.6
O=C(COc1ccc2oc3c(c2c1)CCCC3)Nc1ccccn1
    -1.2 | -0.3
COC(=O)C(Cc1ccc(O)cc1)NC(=O)NC12CC3CC(CC(C3)C1)C2 (stereo not given)
    0.038 | -0.5

The list continues:
Results follow in this order: KSHV LANA nucl | Ab BasE inh
O=C(/C=C/c1ccco1)NNc1ccc2ccccc2n1
    x | 1.5
CCOc1ccc2nc(NC(=O)c3ccccc3F)sc2c1
    x | 2.3
O=C(Nc1ccc(OC(F)(F)F)cc1)Nc1ccc(C2=NCCO2)cc1
    x | 0.7
N#CC(C#N)=CNNc1ncnc2ccsc12
    -0.1 | 1.8
Cc1nonc1OCCn1nnc(N)n1
    0.85 | 1.1
CNc1ccc(Br)cc1-c1nc2ccccc2[nH]c1=O
    -0.7 | 4.2
O=C(O)CCc1nc2ccccc2c(=O)n1C1CC1
    x | 1.7
CC(Oc1ccccc1)C(=O)Nc1scc2c1c(=O)oc1ccccc12 (stereo not given)
    x | -1.1
C/C(O)=C\c1sc2ccccc2[n+]1C
    -2 | 1.1
Cc1cc2c(cc1NC(=O)CC13CC4CC(CC(C4)C1)C3)n(C)c(=O)n2C
    0.84 | 0.3

The listing continues.
Results follow in this order: KSHV LANA nucl | Ab BasE inh
N#CCN(CC#N)C(=O)Cc1ccc(Br)cc1
    0.25 | 1.0
O=C(O)c1ccccc1Nc1ccn2c(=O)c3ccccc3nc2n1
    x | 4.0
CCOC(=O)c1cc(C(C)(C)C)[nH]c(=S)c1C#N
    x | 0.2
Cc1cccc(S(=O)Cc2ccc(C(=O)N3CCc4ccccc43)o2)c1 (stereo not given)
    2.3 | -4.8
Cc1cc(=O)c(C(=O)NCc2ccccc2CN2CCCC2)nn1-c1ccccc1
    x | 3.4
Cn1cccc1C(=O)Nc1ccc(S(=O)(=O)N2CCOCC2)cc1
    x | 1.3
CCC1C(=O)CC(c2ccco2)NC1c1ccco1 (stereo not given)
    x | 0.1
COc1ccc(OC)c(CCCc2cc(OC)ccc2OC)c1
    x | 0.7
S=C(NC1CC1)N1CCCN(Cc2cccc3ccccc23)CC1
    x | 0.0
COc1ccc(NC(=O)C(C)N2CCN(C)CC2)cc1 (stereo not given)
    -0.33 | 1.8
Cc1ccc(C(=O)NCCc2csc3nc(-c4cccc(C)c4)nn23)cc1
    1.1 | -0.2
CC(C)(C)[C@]1(O)CCN2C[C@H]3c4ccccc4CCc4cccc(c43)[C@@H]2C1
    0.14 | x
Nc1ccc2nc(SCc3ccc(F)cc3)sc2c1
    0.7 | -1.0

The list is partial; count on the stated rates, not on these rows.
